High-throughput results as filed in PubChem BioAssay.
Biofilm kill mix – mixture kills Candida albicans biofilm cells; C. albicans biofilm persisters + clotrimazole, fluorescence viability; primary screen in compound mixtures of four per well; AID 1242; 120,000 compounds, 0.02% hits; inhibition, % at 7.6 µM;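 active means inhibition above 30.3% in the primary screen of four-compound pools, then above 30% when the compound was retested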;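 further: compounds exposed to preformed 24 h biofilms for 48 h; the number belongs to the whole pool; some results filed as inactive read as strong as hits; inactives centre near 12; 0% = biofilm with clotrimazole alone and 100% = kill control; retested singly at about 60 µM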
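Test system: C. albicans biofilms. Buffer or medium: RPMI/MOPS medium, pH 7.0. Timing: 48 h compound exposure at 37 °C. Technique: Alamar Blue fluorescence. Evaluation: percent inhibition of biofilm viability.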
* hit, by the source's call.

No.	mol	Biofilm kill mix
1	CSC1=C(C#N)C(C)CC(=O)N1 (configuration not stated)	0
2	CN(CCCN1CCOCC1)Cc1nc(-c2ccccc2)no1	3
3	C#CCOCCOCCOCCNc1nc(N2CCN(C(=O)Cn3cc(CC(C)O)nn3)CC2)nc(N2CCN(C(=O)[C@H]([C@@H](C)CC)n3cc(CCCN=C(N)N)nn3)CC2)n1 (some centres not stated)	10
4	N#Cc1cc([N+](=O)[O-])cnc1Nc1ccccc1	2
5	C=CCNC(=O)c1nc2ccccc2s1	2
6	COc1ccccc1NC(=O)c1cc2cc(Br)ccc2cc1O	24
7	CC(C)(C)NC(=O)NC(=O)CN1CCN(c2ccc(O)cc2)CC1	8
8	CCSc1nnc(NC(=O)CCn2c(=O)oc3ccccc32)s1	15
9	O=C(C1COc2ccccc2O1)N1CCN(c2ccccc2Cl)CC1 (configuration not stated)	15
10	CSc1nc2ccc(NS(=O)(=O)c3ccccc3F)cc2s1	19
11	Cc1nn(CCC#N)c2[nH]c(=O)cc(C(F)(F)F)c12	0
12	CCSCc1nnc(SCC(=O)Nc2ccc(F)cc2)n1CC	13
13	CCCCCCCCCCCC(=O)NC(Cc1ccc(OC)c([N+](=O)[O-])c1)C(=O)O (configuration not stated)	15
14	COc1ccc2[nH]c3c(=O)n4c(nc3c2c1)SCCC4	8
15	COC(=O)c1ccccc1NC(=O)Nc1ccc(C)cn1	0

Some values from the entries so far.
Biofilm kill mix with cpd 5 = 2
Biofilm kill mix with cpd 14 = 8
Biofilm kill mix with cpd 6 = 24

Later entries.
No.	mol	Biofilm kill mix
16	O=C(COC(=O)COc1ccc(Cl)cc1)Nc1ccc(N2CCOCC2)cc1	23
17	N#C/C(=C\c1cccnc1)C(=O)Nc1ccc(C(=O)O)cc1	13
18	CCc1cccc(CC)c1NC(=S)Nc1cccc(Cl)c1Cl	12
19	Fc1ccc(CSc2nnc3ccccn23)c(Cl)c1	15
20	Cc1ccc(NC(=O)C(NC2CCCC2)c2ccccc2)cc1Cl (configuration not stated)	9
21	CN(C1=C(NC(=O)c2ccccc2)C(=O)c2ccccc2C1=O)C1CCS(=O)(=O)C1 (configuration not stated)	20
22	CCOC(=O)N1CCC(NS(=O)(=O)c2ccc(NC(C)=O)c(Cl)c2)CC1	20
23	CC(Cl)C(=O)NNC(=O)CNS(=O)(=O)c1ccccc1 (configuration not stated)	-9
24	Cc1cccc(NC(=O)COc2ccc(/C=C\c3[nH]c(=O)[nH]c(=O)c3[N+](=O)[O-])cc2)c1	-1
25	O=C(Nc1cccc(S(=O)(=O)N2CCCCC2)c1)c1ccc2c(=O)n3c(nc2c1)CCCCC3	-2
26	O=C(NCC1CCCO1)/C(=C/c1ccc(Cl)cc1)NC(=O)c1ccccc1 (configuration not stated)	7
27	CCN(C(=O)c1cc2ccccc2o1)C12CC3CC(CC(C3)C1)C2	9
28	N#C/C(=C\c1ccncc1)c1nc2ccccc2o1	24
29	CC(C)CCN1CCN(CCCn2cccn2)CC1CCO (configuration not stated)	0
30	O=S(=O)(NCC(c1ccco1)N1CCN(c2ccccc2F)CC1)c1ccccc1 (configuration not stated)	12

Copied from the listing, three compounds:
No.	mol	Biofilm kill mix
16	O=C(COC(=O)COc1ccc(Cl)cc1)Nc1ccc(N2CCOCC2)cc1	23
17	N#C/C(=C\c1cccnc1)C(=O)Nc1ccc(C(=O)O)cc1	13
18	CCc1cccc(CC)c1NC(=S)Nc1cccc(Cl)c1Cl	12

Going on with the list:
No.	mol	Biofilm kill mix
31	O=C1OC(C(=O)O)Cc2ccccc21 (configuration not stated)	23
32	C/C(=N\NC(=S)Nc1c(C)cccc1C)c1ccc(OC(F)F)cc1	5
33	S=C(NC1CC1)N1CCc2ccccc2C1	7
34	O=C(Nc1ccc(C(=O)N2CCOCC2)cc1)Nc1cccc(Cl)c1	19
35	Cc1nc2ccc(NC(=O)c3ccc(Cl)c(S(=O)(=O)N(C)c4ccccc4)c3)cc2s1	4
36	COc1ccc(Cl)cc1C(=O)Nc1ccc(NC(C)=O)cc1	15
37	CCN1CCN(c2cc(C)c3cc(NC(=S)N4CCC5(CC4)OCCO5)ccc3n2)CC1	31
38	COc1cccc(-n2c(C)nn(CCOc3ccccc3)c2=O)c1	1
39	CCN(CC)CCNc1nc(-c2cccs2)c(CC(=O)O)s1	6
40	COc1ccc(N/C(N)=N/c2nc(C)cc(C)n2)c(OC)c1	20
41	COc1ccccc1N1CCN(C(=O)CN2C(=O)c3ccccc3S2(=O)=O)CC1	18
42	CCOC(=O)C(Cc1ccc(Cl)cc1Cl)c1ccno1 (configuration not stated)	16
43	C=CCNC(=O)NC(=O)CSc1nnc(C(F)(F)F)n1C	18
44	Cc1cc(Cl)ccc1C(=O)C1CCCN(C(=O)c2cscn2)C1 (configuration not stated)	-5
45	O=C(NNC(=O)c1ccccc1Cl)c1ccccc1Cl	10

(listing goes on)
No.	mol	Biofilm kill mix
46	C=CCNC(=O)C(=O)NCC1CCCN1CC (configuration not stated)	25
47	CCOc1ccc(-c2c(C)n([O-])c3c([n+]2=O)CCCCC3)cc1	12
48	C=CCn1c(C)cc(C(=O)Cn2ncc(Cl)c(Cl)c2=O)c1C	10
49	CCOc1ccccc1N(C(=O)Nc1ccc(Cl)cc1)C1=NC(C)CS1 (configuration not stated)	9
50	CCN(CC)S(=O)(=O)c1ccc(NC(=O)C(C)N(c2ccccc2)S(C)(=O)=O)cc1 (configuration not stated)	6
51	Cc1c(-c2ccccc2)nc2ccccc2c1C(=O)OCC(=O)Nc1ncc(C(F)(F)F)cc1Cl	12
52	COc1ccc(/C=C2\OC(=S)N(C)C2=O)cc1	10
53	CC(=O)c1c(N2CCOCC2)nc2ccc(Br)cc2c1-c1ccccc1	2
54	CC(C)Cn1c(-c2csc(C(C)C)c2)n[nH]c1=S	0
55	S=C(Nc1cccnc1)NC1CCCC1	4
56	COc1ccc(NC(=O)CSc2nc(C)cc(C)n2)c([N+](=O)[O-])c1	26
57	O=C1CSc2ccc(C(=O)Nc3cccc(S(=O)(=O)Nc4ccc(Br)cc4)c3)cc2N1	13
58	O=C(O)CC/C(=C\c1ccccc1[N+](=O)[O-])c1nc2ccccc2s1	7
59	CC(C)CN(C(=O)CN1CCN(c2ccc([N+](=O)[O-])cc2)CC1)c1c(N)n(CC(C)C)c(=O)[nH]c1=O	13
60	Cc1cccc(C)c1NC(=O)Cn1nnc(-c2ccc(CN3CCC(C)CC3)cc2)n1	14

Arranged by SMILES length (low to high): part of the list above
No.	mol	Biofilm kill mix
54	CC(C)Cn1c(-c2csc(C(C)C)c2)n[nH]c1=S	0
53	CC(=O)c1c(N2CCOCC2)nc2ccc(Br)cc2c1-c1ccccc1	2
47	CCOc1ccc(-c2c(C)n([O-])c3c([n+]2=O)CCCCC3)cc1	12
56	COc1ccc(NC(=O)CSc2nc(C)cc(C)n2)c([N+](=O)[O-])c1	26
51	Cc1c(-c2ccccc2)nc2ccccc2c1C(=O)OCC(=O)Nc1ncc(C(F)(F)F)cc1Cl	12

Next compounds:
No.	mol	Biofilm kill mix
61	O=C(c1cnc2ccc3ccccc3c2c1)c1cc(F)ccc1O	9
62	O=[N+]([O-])c1cccnc1-n1cnc2ccccc21	11
63	CCOc1ccc2nc(N3CCCC(C(=O)NCC4CCCO4)C3)sc2c1 (configuration not stated)	22
64	O=C1CCCC2=C1C1(CCCCC1)N=C(Nc1nc3ccccc3o1)N2	12
65	C/C(=N\O)c1cc(Cl)ccc1O	20
66	O=C(CCc1nc2ccccc2c(=O)[nH]1)Nc1ccc(F)c([N+](=O)[O-])c1	13
67	COc1cc(S(=O)(=O)N(Cc2ccccn2)Cc2ccco2)ccc1-n1cnnn1	11
68	O=C(Cn1cc(C(F)(F)F)ccc1=O)N/N=C/c1ccc(Cl)cc1	23
69	COc1ccc(OCCn2cc(/C=N/NC(=O)c3ccncc3)c3ccccc32)cc1	-5
70	O=C1c2ccccc2NC(c2ccccn2)N1NS(=O)(=O)c1ccccc1 (configuration not stated)	-3
71	COc1ccccc1CC(=O)NCc1csc(-c2cccs2)n1	4
72	COc1ccc(C(=O)Cn2c(Cl)nc3c2c(=O)n(C)c(=O)n3C)cc1	14
73	CN(c1ccccc1)S(=O)(=O)c1cccc(Cl)c1Cl	17
74	Cc1ccc(/C=C/C(=O)O)cc1S(=O)(=O)NCc1cccnc1	10
75	O=C(NC1CC1)C1=C[C@H](C2CCCCC2)C[C@H](OCc2ccc(CO)cc2)O1	14

New compounds follow.
No.	mol	Biofilm kill mix
76	CCOC(=O)C1(Cc2cccc(Cl)c2)CCCN(C(=O)CCC(=O)N(C)C)C1 (configuration not stated)	11
77	COc1ccccc1N(CC(=O)NCc1ccccc1)C(=O)CCC(=O)Nc1cc(C)ccn1	8
78	CCC1CCCCN1C(=O)CNCC1CCCO1 (configuration not stated)	10
79	CN(C)N=Nc1nc2c(c(=O)n(C)c(=O)n2C)n1C	20
80	COc1ccnc(Oc2ccccc2)c1C(=O)N/C=N/OCc1ccccc1	10
81	COc1ccc(S(=O)(=O)NCC2CCCN(C(=O)c3sccc3C)C2)cc1 (configuration not stated)	2
82	Cc1ccc(C(NC(=O)C(C)C)c2cc([N+](=O)[O-])c3cccnc3c2O)cc1 (configuration not stated)	0
83	Cc1ccc(NC(=S)N(CCCN2CCN(C)CC2)Cc2cccs2)cc1C	-3
84	Cc1ccccc1OCCn1cc(C(=S)N2CCN(C)CC2)c2ccccc21	28
85	CC(C)c1ccc(NC(=O)CSC(C)c2nc3ccccc3c(=O)[nH]2)cc1 (configuration not stated)	21
86	COc1ccc(C(=O)C2CCN(C(=S)Nc3ccc(F)cc3)CC2)cc1	12
87	COCCNC(=O)CCC(=O)NNc1nc2ccccc2c2nc(C)nn12	15
88	COC(=O)CCCC1=CC2=CC(=O)C(C)(OC(=O)c3cccs3)C(=O)C2=CN1CCc1ccccn1 (configuration not stated)	16
89	Cn1c(SCc2ccc(C(C)(C)C)cc2)nnc1C1COc2ccccc2O1 (configuration not stated)	0
90	O=C(NNc1nc(-c2ccccc2)cs1)c1ccc(F)cc1	18

The listing continues.
No.	mol	Biofilm kill mix
91	CCc1cccc(CC)c1N(COC)C(=O)Cn1cnc2ccccc21	21
92	COC(=O)c1cc2c(C(F)(F)F)nn(C)c2s1	24
93	CNC(=O)C1=C(C)NC(=S)NC1c1cccs1 (configuration not stated)	4
94	COc1cc([N+](=O)[O-])ccc1NC(=S)Nc1cccc(C(=O)O)c1	11
95	Cc1cc([N+](=O)[O-])ccc1N=Nc1c(N)[nH]n(-c2ccccc2)c1=O	8
96	Cc1cc(=O)c2cc(C(=O)c3ccccc3)ccc2[nH]1	14
97	COc1ccc(C2C(C#N)=C(N)OC3=C2C(=O)CCC3)cc1OC (configuration not stated)	14
98	O=S(=O)(Cc1ccco1)Cc1nc(-c2ccc(Cl)cc2)cs1	3
99	COc1ccc(CCNC(=O)[C@@H]2C[C@H]2c2ccccc2)cc1OC	3
100	O=C(NCc1ccco1)C1CC(c2ccc(Cl)c(Cl)c2)=NO1 (configuration not stated)	18
101	COc1ccc(CCNC(=O)c2ccc(=O)[nH]c2)cc1	9
102	O=C(N/N=C/c1ccc(N2CCCCC2)o1)c1ccccc1	12
103	COc1cccc(S(=O)(=O)Nc2cccc(C(=O)N3CCOCC3)c2)c1	-2
104	COc1ccc(C(=O)Nc2ccc(C(=O)NCCc3ccc(OC)c(OC)c3)cc2)cc1	1
105	Cc1c(Cl)cn2c(=O)cc(CN3CCN(c4ccc(F)cc4)CC3)nc2c1Cl	7

Further structures.
No.	mol	Biofilm kill mix
106	O=C(CNC(=S)NC(=O)c1ccccc1)c1ccccc1	14
107	CN1CCN(NC(=O)c2cc(S(=O)(=O)Nc3ccc(Cl)cc3)ccc2Cl)CC1	29
108	CN(Cc1cn(C)nc1-c1cccc(Cl)c1)C1CCOCC1	4
109	Cn1c(-c2ccc3c(c2)OCO3)cnc1NCc1ccccc1Cl	13
110	NC(N)=Nc1nc2ccc(Cl)cc2c(=O)[nH]1	3
111	N#CCSc1nn(-c2ccc(F)cc2)c(=S)s1	9
112	O=C(/C=C/c1ccoc1)c1ccccc1O	10
113	CCOc1ccc(/C(O)=C2\C(=O)C(=O)N(c3ccc(OC)cc3)C2c2ccccc2[N+](=O)[O-])cc1 (configuration not stated)	4
114	COC(=O)c1c(NC(=O)C2CC2)sc(C(=O)Nc2ccccc2)c1C	10
115	Cc1ccccc1OCCSc1nc2ncnc(N)c2[nH]1	2
116	CC1(c2nnc(-c3ccc(Cl)cc3)o2)CC(c2ccc(Cl)cc2)=NO1 (configuration not stated)	16
117	CNC(=O)COC(=O)[C@@H](Nc1ccc(S(=O)(=O)N2CCOCC2)cc1[N+](=O)[O-])C(C)C	8
118	COc1ccc([N+](=O)[O-])cc1NC(=O)CSc1nc(C)c(C)c(C)n1	19
119	Cc1ccc(N2CCN(C3=NC(=O)C(Cc4ccccc4)S3)CC2)cc1 (configuration not stated)	21
120	CN=C(Cc1ccccc1)C1=C(O)CC(C)(C)CC1=O	0

Later entries:
No.	mol	Biofilm kill mix
121	Cc1nn(-c2ccccc2)c(Cl)c1/C=N/NC(=O)CNC(=O)c1ccccc1Cl	20
122	CC(C)N(C)C(=O)c1ccc(OC2CCN(CCc3ccccc3)CC2)cc1	14
123	Cc1ccccc1OCC(=O)NCc1ccccc1	18
124	NS(=O)(=O)c1ccc(NC(=O)CSc2ncn[nH]2)cc1	26
125	O=C(Cc1ccc([N+](=O)[O-])cc1)Nc1ccc(O)cc1C(=O)O	13
126	CCN(CC)C(=O)/C(=C/c1ccc(F)cc1)NC(C)=O	4
127	CC1=CN2C(=N)/C(=C/c3ccc(Sc4ccc(Cl)cc4)o3)C(=O)N=C2S1	0
128	O=C(N/N=C/c1ccc([N+](=O)[O-])cc1)c1cccc2cc[nH]c12	0
129	CC1(C)CSC(=NCCc2ccccc2)N1C(=O)c1ccc(C#N)cc1	-8
130	COc1cc(/C=N/NC(=O)C[n+]2ccccc2)cc(OC)c1OC	15
131	COC(=O)c1cn(NC(=O)Cc2ccc(OC)c(OC)c2)c(=O)c2ccccc12	8
132	CCOC(=O)C1CCN(C(=O)C(C)c2ccc([N+](=O)[O-])cc2)CC1 (configuration not stated)	13

Only part of the results is shown; the hit share may differ from the screen's.
